Screening data: PubChem BioAssay, several laboratories
HIV Env fusion: inhibitors of HIV-1 Env-driven cell-cell fusion, primary screen, HeLa-JRFL effector, CEM21 target cells, luciferase; inhibition, % at 12.3 µM; actives 1.1% (n = 360,000);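 active = mean replicate inhibition score of at least 50 and every replicate individually at or above 50; inconclusive = only one of the two criteria met; inactive = mean below 50 and not all replicates reaching 50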;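 also: 0% = plate neutral controls and 100% = maraviroc near 300 nM; one replicate is shown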
UUG fidelity: modulators of yeast start codon fidelity, primary screen, whole organism, S. cerevisiae, single point, plate reader; S. cerevisiae UUG-firefly luciferase reporter, luminescence/redox ratio; actives 0.13% (n = 350,000); activity score, % at 18.7 µM;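 active = replicate mean at a twofold rise or more, about +100% in these data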;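 also: firefly luciferase made from a UUG start codon reports start codon fidelity; reporter light over untreated wells divided by growth signal over untreated wells; some hits fall short of that in this replicate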
eIF4H inh: human eIF4H binding inhibitors, primary screen, translation initiation inhibitor project, biochemical, uHTS, fluorescence polarization; Eukaryotic translation initiation factor 4H (Homo sapiens), Q15056; eIF4H fluorescence polarization binding assay; inhibition, % at 35 µM; actives 0.94% (n = 290,000); AID 2012, 2009;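 active = 50% or more with normal probe brightness, or confirmed in later tests; inconclusive = above 50% with abnormal brightness, or retests that disagree; inactive = below 50% or failed in later tests; about a fifth of its hits are not listed in these tables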;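 also: calls also rest on retests at 20 µM and on dose response follow-up; 0% = protein and probe with vehicle and 100% = probe without protein; strong numbers were not always called active; many hits fall short of the cut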
CSC inhib: cancer stem cell viability inhibitors, primary screen, luminescence. inhibition, % at 7.5 µM. actives 1.1% (n = 300,000). cancer stem cell-like cells viability. AID 2717, 2010;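 active = mean at 75% or more and at least half the replicates too; inconclusive = mean and replicates disagree; tested in HMLE shEcad cells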;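 also: 0% = median of negative and 100% = median of positive control wells; the first replicate is given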
Rce1 inhib: yeast Rce1p protease inhibitors, primary screen, biochemical, fluorescence, cell-free homogeneous | calls only | yeast membranes, quenched prenylated peptide cleavage fluorescence | AID 2563, 2010 | actives 0.27% (n = 290,000);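 active = fall in fluorescence gain of 50% or more versus controls, with final raw signal at or below 3038400; inconclusive = same 50% fall but final raw signal above 3038400; inactive = fall in fluorescence gain under 50%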;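 also: plate controls were neutral control wells for no effect and wells lacking membranes for full effect; tested at 10 µM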
Target sequence (Q03530 whole entry, looked up): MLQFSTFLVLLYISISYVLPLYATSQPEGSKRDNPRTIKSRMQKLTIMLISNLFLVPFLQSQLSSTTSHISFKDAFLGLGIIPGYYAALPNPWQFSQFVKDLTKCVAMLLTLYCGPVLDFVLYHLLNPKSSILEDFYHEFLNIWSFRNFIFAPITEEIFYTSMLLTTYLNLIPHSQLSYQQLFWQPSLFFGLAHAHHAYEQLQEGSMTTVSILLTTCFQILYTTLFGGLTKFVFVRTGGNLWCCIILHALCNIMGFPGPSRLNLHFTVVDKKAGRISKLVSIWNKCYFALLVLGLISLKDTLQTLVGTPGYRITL
MT1-MMP act inh: blockers of MT1-MMP proenzyme processing, primary screen, HT1080 RFP-PRO-GFP cells, GFP/RFP fluorescence. actives 0.061% (n = 360,000). GFP/RFP ratio fluorescence, overnight; percent of plate control window, DMSO zero. GFP/RFP ratio change, % at 20 µM;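 active = GFP/RFP ratio change of at least 30% with cell ATP level not reduced by more than half and red fluorescence within 50% of control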; also: strong numbers were not always called active
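Test system: HT1080 RFP-PRO-GFP cells; Benchmarks: DMSO and RFP-L50D-GFP cell wells; Timing: cells overnight before dosing, compound overnight, 37 °C, 5% CO2; Compound: one 20 µM compound dose with 1% DMSO; Read-out: GFP/RFP fluorescence ratio.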
PABP FP inh: PABP poly(A) RNA binding inhibitors, primary screen, biochemical, fluorescence polarization, uHTS. actives 1% (n = 290,000). inhibition, % at 35 µM. Polyadenylate-binding protein 1 (Homo sapiens), P11940;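 active = 50% or more with normal probe brightness, or confirmed in later tests; inconclusive = above 50% with abnormal brightness, or retests that disagree; inactive = below 50% or failed in later tests; about a fifth of its hits are not listed in these tables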;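 also: calls also rest on retests at 20 µM and on dose response follow-up; controls were probe without protein and protein plus probe with vehicle; some compounds called inactive have numbers as strong as hits; many hits fall short of the cut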
Target sequence (P11940 whole entry, looked up): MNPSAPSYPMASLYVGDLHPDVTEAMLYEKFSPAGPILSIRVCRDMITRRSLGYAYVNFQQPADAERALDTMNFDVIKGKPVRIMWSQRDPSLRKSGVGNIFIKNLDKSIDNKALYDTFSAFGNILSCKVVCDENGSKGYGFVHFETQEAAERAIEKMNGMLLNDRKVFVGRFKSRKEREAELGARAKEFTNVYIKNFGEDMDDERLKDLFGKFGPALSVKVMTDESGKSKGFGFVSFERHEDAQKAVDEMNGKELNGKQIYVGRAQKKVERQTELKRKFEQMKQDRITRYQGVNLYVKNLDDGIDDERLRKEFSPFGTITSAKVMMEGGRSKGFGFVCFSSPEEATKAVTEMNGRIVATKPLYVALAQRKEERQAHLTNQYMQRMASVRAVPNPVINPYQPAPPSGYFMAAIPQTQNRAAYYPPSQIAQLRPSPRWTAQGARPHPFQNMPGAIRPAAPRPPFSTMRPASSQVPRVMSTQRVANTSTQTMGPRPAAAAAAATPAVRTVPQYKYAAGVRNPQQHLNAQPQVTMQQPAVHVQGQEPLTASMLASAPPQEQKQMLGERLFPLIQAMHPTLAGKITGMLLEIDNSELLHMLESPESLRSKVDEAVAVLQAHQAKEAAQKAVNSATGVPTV
eIF4H inh retest: second read-out of eIF4H inh, no call of its own (marks repeat the call); inhibition, %; compound at 20 µM; confirmation average;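 mean of two retest wells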
PABP FP inh retest: second read-out of PABP FP inh, no call of its own (marks repeat the call); inhibition, %; compound at 20 µM; confirmation repeats;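 mean of two retest wells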
MT1-MMP act inh RFP: also measured in MT1-MMP act inh; calls as there; RFP signal change, %; measured here: RFP expression control read;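 0 = vehicle wells; hits needed this value within 50% of zero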
Starred values were filed as active, the others as inactive; i = inactive; ? = inconclusive; · = not tested or not shown; + = active, no number. Not all compounds are listed; count on the stated rates, not on these rows.

SMILES	HIV Env fusion	UUG fidelity	eIF4H inh	CSC inhib	Rce1 inhib	MT1-MMP act inh	MT1-MMP act inh RFP	PABP FP inh	others
CCN(C[C@H]1N[C@@](Cc2ccccc2)(C(=O)OC)[C@H]2C(=O)N(Cc3ccccc3)C(=O)[C@@H]12)S(=O)(=O)c1ccc(-c2ccccc2)cc1	20	-6	·	·	·	-1	-2	·
O=C(CSc1nc2ncccc2[nH]1)NCCc1ccccc1	-4	-17	14	1	i	3	6	4
Brc1ccc(Oc2nsnc2N2CCOCC2)cc1	0	7	-1	5	i	5	2	26
Cc1ccc2c(c1)NC(=O)C(CC(=O)NCCCN1CCc3ccccc3C1)O2 (stereo not drawn)	-52	-14	-1	0	i	2	2	-3
COc1ccc(NC(=O)Cn2c(C)cc(=O)c3ccccc32)cc1	36	1	-10	-3	i	-3	-21	9
COc1ccc(-c2nc(NC(=O)c3ccc(OCC(=O)Nc4ccc(F)cc4)c(OC)c3)sc2C)cc1	-56	-8	3	10	i	-3	0	-1
COc1ccc(-c2nnc(SCC(N)=O)n2N)cc1	·	-19	-15	-10	i	6	2	0
CCOc1ccc(Nc2nc(CC(=O)OC)cc(=O)[nH]2)cc1	-2	12	-4	-9	i	3	-2	1
O=C(NC(=S)Nc1ccccc1)c1cccs1	-21	-18	-8	·	i	0	-1	14
COc1ccc(CNC(=O)[C@H](Cc2ccccc2)NC(=O)C2CCNCC2)cc1	2	·	-2	-11	i	1	3	0
O=C(NCC(=O)N1CCOCC1)c1ccc(Cl)c(Cl)c1	-26	-6	·	-2	·	1	0	·
CC(=O)Nc1ccc(NCCc2cccs2)cc1	8	-10	·	·	·	2	3	·
NS(=O)(=O)c1cccc(NC(=O)c2cccc(Oc3ccccc3)c2)c1	6	-4	-1	·	i	-3	-5	7
COc1ccc(-c2nc3c(c(SCC(=O)N4CCOCC4)n2)COC(C)(C)C3)cc1	1	-1	-5	-6	i	·	·	-6
CC1CCCC(C)N1/N=C/c1ccc(N(C)C)cc1 (stereo not drawn)	-11	-1	-9	8	i	3	7	-1
Cn1c(CCC(=O)O)nc2cc(S(=O)(=O)N3CCCC3)ccc21	5	-13	·	-14	·	0	3	·
CN(C(=O)Nc1ccc(Cl)cc1Cl)[C@H]1c2cc(Br)ccc2OC[C@H]1CO	-22	9	-17	10	i	-6	-5	-2
Cc1cc(N2C(=O)C(O)=C(C(=O)c3cc4ccccc4o3)C2c2ccc(Cl)cc2)no1 (stereo not drawn)	-5	-14	-3	-16	i	-1	-2	1
O=C(Nc1nnc(Cc2ccc([N+](=O)[O-])cc2)s1)c1ccc2c(c1)OCO2	9	·	-10	-10	i	6	-1	-10
CCOC1=C2[C@@H](CN(S(=O)(=O)c3ccc(C)cc3)[C@H]2c2cccc3ccccc23)[C@H]2C(=O)N(CC)C(=O)[C@H]2C1	14	13	·	·	·	2	0	·
O=C(NCCc1ccccc1)c1ccc(NC2=NC3CS(=O)(=O)CC3S2)cc1 (stereo not drawn)	0	7	-13	-2	i	-3	1	-6
Cc1nnc(SCCOC(N)=O)n1C	-24	·	-5	·	i	0	2	-6
CC(=C\c1ccccc1)/C=C1/SC(=O)N(CCCC(=O)Nc2ccc(C(=O)O)cc2)C1=O	-30	·	6	-3	i	4	2	11
Cc1nc2c(C#N)c(-c3ccc(Cl)cc3)ccn2n1	-3	·	0	-14	i	1	-3	8
COc1ccc(CCNC(=O)C2CCN(C(=O)c3ccc(Br)cc3)CC2)cc1OC	-4	6	10	-3	i	2	-2	11
Cn1ncc(Cl)c1C(=O)N1CCN(c2ccc(F)cc2)CC1	-14	-4	0	-1	i	2	-1	3
Cc1ccc(C(=O)NC(Cc2cccc(F)c2)C(=O)O)cc1 (stereo not drawn)	6	-4	·	·	·	-5	-1	·
Cc1[nH]c2ccc(C(=O)Nc3ccncc3)cc2c1C	-19	-17	44	7	i	5	-8	32
NC(=O)CSc1nnc(NC(=O)c2cccc(S(=O)(=O)N3CCCCC3)c2)s1	23	-12	-6	·	i	-3	1	-3
COc1ccc(NC(=O)CN(C)C(=O)CNC(=O)c2sc3ccccc3c2Cl)cc1	-52	-7	·	·	·	-6	-1	·
O=[N+]([O-])c1cc(O)c2ncccc2c1	36	·	32	13	i	·	·	-7
Cc1cccc(-n2ccnc2SCC(=O)N2CCCc3ccccc32)c1C	16	·	-12	·	i	-4	-2	-12
Cc1cc(C)c(C#N)c(SCC(=O)NC2CC2)n1	-4	-20	-2	-9	i	0	5	-6
O=C(OCc1cc(=O)n2c(n1)sc1ccccc12)c1ccc(O)cc1O	12	·	84	-12	i	-4	-1	-2	eIF4H inh retest=-8;PABP FP inh retest=15
COC(=O)Cn1cnc2c(cnn2-c2ccc(C)cc2)c1=O	·	-9	-4	-7	i	1	2	1
COc1ccccc1NC(=O)CSCc1cc(=O)n2c(C)csc2n1	-5	11	2	2	i	1	3	58	eIF4H inh retest=-8;PABP FP inh retest=4
COc1cc(OC)cc(-c2nnc(SCC(=O)N3CCOCC3)o2)c1	·	9	5	·	i	-3	4	-7
CCOC(=O)C1(Cc2ccccc2)CCCN(S(=O)(=O)N(C)C)C1 (stereo not drawn)	16	-21	-7	-12	i	5	0	5
CCC(=O)N1CCNC(=O)C1CC(=O)Nc1ccc(C)c(Cl)c1 (stereo not drawn)	·	1	-2	-5	i	3	4	0
CC1CCC(NC(=O)c2ccc(N3CCCC3=O)cc2)CC1 (stereo not drawn)	-23	11	-7	-15	i	0	-2	5
c1ccc2c3n(nc2c1)CCCO3	14	-12	·	-12	·	5	3	·
CN1CCCN(C(=O)CSc2ccccc2)CC1	8	5	1	-2	i	2	3	-6
O=C(Nc1nnc(SCc2ccc(Cl)cc2)s1)c1cnccn1	7	-15	16	37	i	3	8	8
O=C(NCCC(c1ccccc1)c1ccco1)c1cccs1 (stereo not drawn)	-19	-12	-15	1	i	-1	-5	-2
CCOC(=O)C1=CCN(S(=O)(=O)c2ccccc2Cl)C1c1cccc(Cl)c1 (stereo not drawn)	25	-7	·	·	·	-2	-2	·
Cc1nc2ccccc2nc1OCC(=O)Nc1ccccc1	3	19	9	-3	i	5	5	4
NC(=O)NNC(=S)Nc1cccc2ccccc12	6	·	6	-7	i	7	13	3
CCCCOC(=O)/C(=C\c1ccc([N+](=O)[O-])o1)NC(=O)c1ccccc1	5	-7	?	-7	i	-5	7	-13
COCCNc1nc(NCc2cc(-c3ccc(OC)cc3)no2)c2sccc2n1	-34	-9	·	·	·	2	-15	·
CC(=O)N1N=C(c2ccc([N+](=O)[O-])cc2)CC1c1ccccc1Cl (stereo not drawn)	-3	-6	-3	2	i	1	-3	-7

(next part)
SMILES	HIV Env fusion	UUG fidelity	eIF4H inh	CSC inhib	Rce1 inhib	MT1-MMP act inh	MT1-MMP act inh RFP	PABP FP inh	others
COc1ccc(F)cc1C(=O)C1CCCN(C(=O)CCN2CCCCO2)C1 (stereo not drawn)	-8	·	0	-11	i	3	2	-9
COc1ccc(F)cc1C(=O)C1CCCN(Cc2c[nH]c3ccccc23)C1 (stereo not drawn)	4	·	-10	7	·	-4	0	1
CCOc1ccc(NS(=O)(=O)c2ccc(C(=O)N3CC(C)OC(C)C3)cc2)cc1 (stereo not drawn)	·	-8	·	11	·	3	-11	·
CC(=O)c1ccc(N2CCN(C(=O)c3ccc(Cn4c(=S)[nH]c5ccc(N6CCOCC6)cc5c4=O)cc3)CC2)cc1	7	4	-12	33	i	-1	-17	10
O=S(=O)(NCC(c1ccco1)N1CCN(c2ccc(F)cc2)CC1)c1ccc2c(c1)OCCO2 (stereo not drawn)	-9	·	1	·	i	1	-17	-7
CCN(CC(=O)Nc1ccccc1C(F)(F)F)C(=O)C1CCC1	6	·	·	-13	i	-3	-2	·
C=C(C)COc1ccc(-c2ncnc(C(F)(F)F)c2-c2ccccc2)c(O)c1	27	-9	9	42	i	12	-2	10
Cc1cc(S(=O)(=O)Nc2cccc(O)c2)c(C)s1	10	8	-14	0	i	9	-3	-1
CCOC(=O)CC1ON(C)C(=O)N1c1ccc(Cl)cc1Cl (stereo not drawn)	·	58	7	0	i	-2	-2	-2
Cc1nc2ccccn2c1C(=O)N/N=C/c1ccc(F)cc1	-12	-14	2	62	i	-3	0	8
CCCN(CC)c1ncnc2[nH]ncc12	16	-23	·	·	·	-23	-6	·
COC(=O)C1=C(C(=O)OC)[C@@H]2N(Cc3ccccc3)c3ccccc3[C@@]23C[C@@H](C(=O)OC)N=C3N1	24	-10	8	0	i	-1	0	1
C=CCN(C)NC(=S)Nc1ccccc1	12	0	12	4	i	1	7	12
COC(=O)c1cc(S(=O)(=O)N2CCN(c3ccccc3OC)CC2)cn1C	-2	-4	·	-9	i	-2	-4	·
CC(=O)c1cc2c(cc1NC(=O)CN1CCCCCCC1)OCO2	-130	-16	-1	-12	i	-4	-8	-2
O=C(OCCN1CCOCC1)c1ccc(Cl)cc1Cl	0	7	-3	-2	i	2	-3	17
Cc1nnc(SCC(=O)Nc2ccc3c(c2)OCCO3)n1N	·	-14	-10	-9	i	6	5	-5
Cc1ccc(C(=O)N2CCCC2)cc1S(=O)(=O)Nc1cccc(C)c1C	4	-3	-9	-11	i	9	0	-4
CCSc1nnc(NC(=O)c2c(-c3ccccc3Cl)noc2C)s1	·	1	-1	·	i	-2	-2	5
CC(=O)NCCn1c(SCc2ccccc2C)nc2ccccc2c1=O	-30	11	-1	1	i	-1	-3	0

Retrieved one by one from the list above, 2 records:
SMILES	HIV Env fusion	UUG fidelity	eIF4H inh	CSC inhib	Rce1 inhib	MT1-MMP act inh	MT1-MMP act inh RFP	PABP FP inh	others
C=CCN(C)NC(=S)Nc1ccccc1	12	0	12	4	i	1	7	12
CC(=O)NCCn1c(SCc2ccccc2C)nc2ccccc2c1=O	-30	11	-1	1	i	-1	-3	0

(cont.)
SMILES	HIV Env fusion	UUG fidelity	eIF4H inh	CSC inhib	Rce1 inhib	MT1-MMP act inh	MT1-MMP act inh RFP	PABP FP inh	others
N/C(=N\OC(=O)c1ccccc1Br)c1cccc([N+](=O)[O-])c1	-186	-12	-8	-7	i	0	1	2
COCCNC(=O)C1CCCN(C(=O)c2sccc2C)CC1 (stereo not drawn)	-7	8	·	·	·	1	-1	·
O=C(COC(=O)CCc1ccccc1)NCc1ccccc1	·	3	·	-17	·	-1	2	·
O=S(=O)(c1cccc(F)c1)N1CCN(C(=S)NCC2CCCO2)CC1 (stereo not drawn)	-12	-29	-1	-12	i	-2	-2	-6
Cc1ccccc1CN1C(=O)[C@@H]2Cc3c([nH]c4ccccc34)C(C)(C)N2C1=O	-8	-1	·	16	i	6	-10	·
CCOC(=O)N1CCN(C(=O)CSc2nnc(-c3ccccc3OC)o2)CC1	·	-15	-8	-3	i	5	3	-4
CCn1c(SCC(=O)c2[nH]c(C)c(C(C)=O)c2C)nnc1-c1cccs1	?	-14	6	-1	i	8	-9	-4
Cc1ccc(C(=O)N/C(=C/c2ccco2)C(=O)Nc2cccc(C(=O)O)c2)cc1	-26	·	25	7	+	·	·	26
O=C(CCCC(=O)N(c1ccc(F)cc1)C(C(=O)NC1CCCC1)c1ccc(O)cc1)Nc1ccccn1 (stereo not drawn)	16	-3	-8	4	i	1	0	-3
